Assay outcomes: PubChem, National Center for Advancing Translational Sciences (NCATS)
Six1-Eya2 inh – qHTS Assay for Inhibitors of the Six1/Eya2 Interaction; 0.56% of 360,000 active; activity change, % (concentration not given with the values); AlphaScreen GST-Six1/His-Eya2 binding, biochemical; hits give low values; control for the full effect not named in the record; AID 651725, 2012; in the data active = activity change below about -65%; inconclusive = about -30% to -65%; inactive = above about -30%; note: % is set by controls: 0 for no effect and ±100 for the full control effect
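Compounds are tested against tagged Six1 and Eya2 proteins bridged by glutathione donor and nickel acceptor beads; after a one-hour incubation at 37 °C without light, AlphaScreen emission is recorded.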
TRPV1 potentiator – HTS Assay for Compounds that Act as Potentiators of the Vanilloid Receptor 1. 0.02% of 320,000 active. AID 540277, 2011. potentiation, % at 8.33 µM. TRPV1-expressing cells, Fluo-8 calcium influx, capsaicin EC20 potentiation; host cell line not named in the record; control for the full effect not named in the record. Transient receptor potential cation channel subfamily V member 1 (Homo sapiens), Q8NER1; active means potentiation above 80%; inconclusive means 30% to 80%; inactive means below 30%; note: 0% is about no effect
Target sequence (Q8NER1 whole entry, looked up): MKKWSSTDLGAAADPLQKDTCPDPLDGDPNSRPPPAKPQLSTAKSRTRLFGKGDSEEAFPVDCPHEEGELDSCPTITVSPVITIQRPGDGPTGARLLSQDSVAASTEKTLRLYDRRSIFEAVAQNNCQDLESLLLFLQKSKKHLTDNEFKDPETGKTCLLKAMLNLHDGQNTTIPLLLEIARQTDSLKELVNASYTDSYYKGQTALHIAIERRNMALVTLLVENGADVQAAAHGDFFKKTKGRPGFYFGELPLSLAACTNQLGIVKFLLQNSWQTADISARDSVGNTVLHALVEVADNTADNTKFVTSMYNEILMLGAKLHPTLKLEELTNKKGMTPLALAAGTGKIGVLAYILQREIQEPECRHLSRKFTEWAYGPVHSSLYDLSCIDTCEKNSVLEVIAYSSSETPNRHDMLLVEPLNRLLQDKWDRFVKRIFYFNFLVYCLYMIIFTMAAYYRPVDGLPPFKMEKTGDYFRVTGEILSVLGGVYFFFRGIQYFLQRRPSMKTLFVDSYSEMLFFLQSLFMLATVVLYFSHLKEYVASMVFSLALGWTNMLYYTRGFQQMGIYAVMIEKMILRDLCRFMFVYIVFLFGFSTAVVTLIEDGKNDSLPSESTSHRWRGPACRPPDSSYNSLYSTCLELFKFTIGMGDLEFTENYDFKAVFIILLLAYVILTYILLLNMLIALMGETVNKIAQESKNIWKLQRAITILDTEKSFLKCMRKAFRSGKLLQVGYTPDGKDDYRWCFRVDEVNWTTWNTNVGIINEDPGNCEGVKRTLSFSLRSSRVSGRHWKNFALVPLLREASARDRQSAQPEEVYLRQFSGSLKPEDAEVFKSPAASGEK
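Fluo-8 calcium influx in TRPV1-expressing cells, kinetic read (ex 480/em 520 nm). Compound added and read 3 min for agonist activity, followed by capsaicin at EC20 final and 2 min further read for enhancement.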
CtBP-E1A inh – qHTS Assay for Inhibitors of the CtBP/E1A Interaction. AID 651724, 2012. activity change, % (concentration not given with the values). 0.49% of 340,000 active. AlphaScreen GST-E1A/His-CtBP binding, 1536-well; hits give low values; control for the full effect not named in the record. CtBP / adenovirus E1A interaction (AlphaScreen); in the data active means activity change below about -65%; inconclusive means about -30% to -65%; inactive means above about -30%; note: % is set by controls: 0 for no effect and ±100 for the full control effect
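In 5 uL wells, 23 nL compound meets equimolar GST-E1A and His-CtBP (5X stock 125 nM each) for 2 h, 37 °C. Beads (5X, 50 ug/mL) then 1 h, 37 °C, dark.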
D2 PAM – Beta-Arrestin HTS for Positive Allosteric Modulators of the Human D2 Dopamine Receptor: Potentiators; D(2) dopamine receptor (Homo sapiens), P14416; DiscoveRx D2 beta-arrestin cells, luminescence, 90 min; 100% = 57 uM dopamine signal; potentiation, % (concentration not given with the values); 0.23% of 360,000 active; AID 624464, 2012; active = potentiation of 50% or more; inconclusive = 30% to 50%; inactive = 30% or less;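 note: compound concentration not given in the record; tested on top of an EC20 dose of dopamine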
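D2 cells co-treated with compound plus 50 nM dopamine (EC20) for 90 min at 37 deg C to detect potentiation. Beta-arrestin recruitment was read as enzyme-fragment luminescence after 1 h at ambient temperature. Full response was set by 57 uM dopamine.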
PINK1 modulator – A Quantitative High throughput Screen to Identify Chemical Modulators of PINK1 Expression. PINK1 immunofluorescence, high-content cytometry, 24 h. Potency, µM (highest dose often 76.6 µM), for the others: top-dose activation (PINK1 increase), usual class: activators. 0.2% of 410,000 active. AID 624263, 2012; active = well fitted activation curve with a large enough effect; inconclusive = small, poorly fitted or top-dose-only effect; inactive = flat fitted curve, though single readings scatter; cell line not stated here;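 note: potency is the fitted concentration of half-maximal effect; % of control where 0% means no effect; nearly all actives have a fitted effect of over 65% in size; a mitochondrial uncoupler was the plate control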
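Decision-based qHTS: stable cells, 24 h exposure to five compound concentrations, CCCP as control. Fixed cells stained for PINK1 plus nuclear, mitochondrial and cell markers, cytometer read.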
D2 agonist – Beta-Arrestin HTS for Positive Allosteric Modulators of the Human D2 Dopamine Receptor: Agonists | AID 624465, 2012 | activation, % (no concentration beside the values) | 0.084% of 360,000 active | DiscoveRx PathHunter D2 beta-arrestin, luminescence, 90 min; 100% = 57 uM dopamine signal; in the data active = activation above about 40%; inconclusive = about 15% to 40%; inactive = below about 15%; note: compound concentration not given in the record; the text of the record calls up to 30% inactive
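Agonist mode: compounds alone added to overnight-plated D2 PathHunter cells for 90 min at 37 C, with 57 uM final dopamine (EC100) defining full response. Beta-arrestin recruitment detected by chemiluminescent reagent, read after 1 h at ambient temperature.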
Sfp inh – qHTS Assay for Inhibitors of Bacillus subtilis Sfp phosphopantetheinyl transferase (PPTase); 4'-phosphopantetheinyl transferase ffp (Bacillus subtilis), Q9F4F7; AID 1490, 2009; Biochemical Sfp PPTase activity, qHTS; Potency, µM, inactives show max response, negative = inhibition, most hits filed as inhibitors; 3.5% of 310,000 active; active = well fitted inhibition curve with a large enough effect; inconclusive = small, poorly fitted or top-dose-only effect, or another doubt; inactive = no such curve, though single readings can be large or run the other way;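 note: the enzyme is Sfp with the accession as filed and its product quenches rhodamine fluorescence; potency is the fitted concentration of half-maximal effect; 0% = enzyme reaction without inhibitor and -100% = no enzyme wells; top concentration of the series not given in the record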
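Step 1, compound plus 15 nM Sfp-PPTase, 15 min, room temperature. Step 2, add rhodamine-CoA (5 uM) and BHQ-2-YbbR (12.5 uM). Step 3, read 525/598 nm fluorescence at 0 and 30 min.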
Starred values were filed as active, the others as inactive; ? = inconclusive; . = not tested or not shown; & = joins results of further samples; [ ] = another dose, or the depositor's remark.

compound,Six1-Eya2 inh,TRPV1 potentiator,CtBP-E1A inh,D2 PAM,PINK1 modulator,D2 agonist,Sfp inh
Cc1ccccc1N1CC(C(=O)O)CC1=O (stereo unspecified),3,-2,3,-5,-2.4%,4.9,11%
O=C(N/N=C/c1ccc(N2CCOCC2)o1)c1cccc(F)c1,-1,20,-3,-5,4.0%,-1.3,8.9µM*
O=C(NC1CC1)C1CCN(C2CCN(C(=O)CSc3ccccc3)CC2)CC1,17,-40,7,4,-0.2%,0.3,13%
COc1ccc(CCNC(=O)CCCn2c(SCC(N)=O)nc3cc4c(cc3c2=O)OCO4)cc1OC,.,9,.,.,-0.5%,.,-8%
Cc1cc(C(=O)Cn2cncn2)c(C)n1CCc1ccc(F)cc1,-3,-10,-1,12,-0.4%,-1.2,13%
Cc1ccc(-c2ccc(CCC(=O)O)n2NC(=O)c2ccco2)cc1,-5,-5,-1,-19,4.2%,-2.3,-3%
Cc1ccc(NC(=O)Nc2cc(Cl)ccc2C2COC(=O)C2=N)cc1 (stereo unspecified),0,0,.,11,-0.7%,-2.8,25%
Cc1c(Cl)c([N+](=O)[O-])nn1CCCC(=O)Nc1cccc(O)c1,5,-21,0,-7,0.4%,1.5,4%
CCC(Sc1nc2ccccc2s1)C(=O)Nc1cc(C)on1 (stereo unspecified),-3,-11,12,-7,0.6%,-4.3,-3%
CCCCNC(=O)CCCCCn1c(=O)[nH]c2cc(OC)c(OC)cc2c1=O,-7,9,-1,-2,?,-4.4,4%

Two of the compounds above, with each value named:
> O=C(NC1CC1)C1CCN(C2CCN(C(=O)CSc3ccccc3)CC2)CC1
- Six1-Eya2 inh: 17
- TRPV1 potentiator: -40
- CtBP-E1A inh: 7
- D2 PAM: 4
- PINK1 modulator: -0.2%
- D2 agonist: 0.3
- Sfp inh: 13%

> CCCCNC(=O)CCCCCn1c(=O)[nH]c2cc(OC)c(OC)cc2c1=O
- Six1-Eya2 inh: -7
- TRPV1 potentiator: 9
- CtBP-E1A inh: -1
- D2 PAM: -2
- PINK1 modulator: ?
- D2 agonist: -4.4
- Sfp inh: 4%

The listing continues:
compound,Six1-Eya2 inh,TRPV1 potentiator,CtBP-E1A inh,D2 PAM,PINK1 modulator,D2 agonist,Sfp inh
COc1ccc(CCNC(=O)CN2CCC(C(N)=O)CC2)cc1,4,6,4,-4,1.3%,-0.8,-14%
Cc1ccc(NC(=O)CSc2nnc3ccc(-c4cccnc4)nn23)cc1,2,0,0,0,1.4%,1.5,.
COc1ccc(NC(=O)c2cc(-c3cccnc3)nc3ccc(C)cc23)cc1OC,2,-10,-11,-3,26%[38.3 µM],2.5,-15%
O=C(c1ccc(=O)[nH]c1)N(c1ccccc1)C(CCc1ccccc1)c1nc2ccccc2[nH]1 (stereo unspecified),-9,.,-2,-4,2.1%,-6.8,.
CC(=O)c1cccc(NC(=O)C2Cc3c(-c4ccco4)ccnc3O2)c1 (stereo unspecified),2,.,0,-6,0.8%,-2.0,.
O=C(N/N=C/c1ccc([N+](=O)[O-])o1)c1ccc(NS(=O)(=O)c2cccs2)cc1,8,13,?,22,?,-2.2,4%
CCn1cc([N+](=O)[O-])c(C(=O)Nc2c(C)nn(Cc3cccc(F)c3)c2C)n1,6,17,2,10,-0.2%,0.7,-2%
CCCCN(C(=O)c1cccc(S(=O)(=O)N2CCN(C)CC2)c1)c1c(N)n(CCCC)c(=O)[nH]c1=O,5,19,3,-19,-2.8%,-3.1,.
CC[C@H](C)[C@H]1CNC(=S)N1CC1CCN(CCC23CC4CC(CC(C4)C2)C3)CC1,-3,.,-1,-19,4.4%,-0.5,.
ONC(=Nc1ccc(Cl)cc1)c1ccccc1Cl,-2,5,6,3,3.8%,0.8,1%
COC(=O)c1c(-c2ccc(OC)cc2)oc2ccccc12,105,4,.,2,12%,-1.5,-19%
CC(OC(=O)c1ccc(NC(=O)CC#N)cc1)C(=O)NC(=O)NC1CCCCC1 (stereo unspecified),1,15,-2,16,0.4%,-1.4,6%
CSCCC(NC(=O)c1ccco1)C(=O)N1CC(C)OC(C)C1 (stereo unspecified),27,-15,.,2,9.2%,3.1,.
CCSc1nc2sc3c(c2c(=O)n1-c1ccc(C)cc1)CCN(C)C3,13,-5,0,-12,3.5%,-3.8,-2%
CCc1ccc(CNC(=O)C2CC(=O)N(C3CCCC3)C2)cc1 (stereo unspecified),-2,-1,.,1,0.1%,-2.1,7%
O=C(O)c1c[nH]c2c(C(F)(F)F)cccc2c1=O,18,0,22,-9,0.7%,-3.5,4%
Cc1c(F)cccc1NS(=O)(=O)c1ccc2c(c1)c(=O)n(C)c(=O)n2C,?,-2,?,11,-1.8%,1.2,-2%
CCN(CC)S(=O)(=O)c1ccc(NC(=O)c2cccc3c2C(=O)N(CCOC)C3)cc1,-1,4,-2,-2,12%,-3.5,22%
CCC(C(=O)NC1CC(C)(C)NC(C)(C)C1)c1ccccc1 (stereo unspecified),12,4,.,-22,-0.2%,1.7,11%
CCc1cc2c(NCc3ccccc3)nc(C)nc2s1,-3,-4,.,5,?,3.8,1%
CN(c1ccccc1)S(=O)(=O)c1cc(C(=O)Nc2nc3ccccc3[nH]2)ccc1Cl,-24,-2,-16,-4,0.4%,2.1,47%[activator]
CC(=O)NCCc1cnc[nH]1,0,15,5,-7,-0.9%,-3.5,29%
CCOC(=O)C1CCN(C(=O)c2cccc(S(=O)(=O)NCc3ccccc3)c2)CC1,-2,-2,.,-2,-1.7%,-1.2,.
CCCCOc1ccc(N(CC(=O)NC(C)(C)CC)C(=O)CCC(=O)Nc2ccccn2)cc1,1,-4,-1,-9,-1.3%,-3.6,10%
COc1ccc(-n2c(C)cc(C(=O)Cn3nnc4ccccc4c3=O)c2C)cc1,-23,-20,-15,-7,?,-1.2,-1%
C=CCn1c(SCC(=O)NCC2CCCO2)nc2scc(-c3ccc(OC)cc3)c2c1=O (stereo unspecified),-3,-11,-8,-23,0.3%,-4.7,-17%
O=C(CCSCCc1ccccn1)Nc1cc(F)ccc1F,2,-4,11,-9,-1.5%&0.2%,-2.0,17%
COc1cc(C(=O)NCCCCc2ccccc2)cc(OC)c1OC,13,10,.,-3,-1.4%,2.5,10%
CCOCCCNC(=S)N1CCN(Cc2ccco2)CC1,2,20,9,-2,6.7%,2.4,?
O=C(NNC(=O)c1cc(Cl)ccc1O)c1cccc(S(=O)(=O)N2CCOCC2)c1,?,12,?,-20,-0.7%,-9.3,.
O=C1/C(=C/c2ccco2)SC(=S)N1CC1CCCO1 (stereo unspecified),?,-7,-16,11,-1.0%,-0.5,18µM*
CC1=C(C)CC(C(=O)NNC(=O)c2cccc(Cl)c2)C(C(=O)O)C1 (stereo unspecified),1,-4,-12,-25,-2.1%,-6.7,?
Cc1c(C(=O)NCCn2ccc3ccccc32)cccc1[N+](=O)[O-],-2,8,0,-7,0.5%,-4.3,15%
O=C(CC(C(=O)O)P(=O)(c1ccccc1)c1ccccc1)c1ccccc1 (stereo unspecified),9,10,2,-1,5.4%,6.8,19%
Cc1[nH]nc2nc(SCC(=O)NCCC3=CCCCC3)n(-c3ccc(Br)cc3)c(=N)c12,-14,-3,.,-1,-0.1%,6.6,2%
C/C(=N/Oc1nc(C)cc(C)n1)c1ccc(Br)cc1,-9,-11,-2,-17,3.3%,0.8,2%
CN(C(=O)COC(=O)c1cn(-c2ccccc2)nc1-c1ccccc1)C1CCS(=O)(=O)C1 (stereo unspecified),2,15,4,-4,2.3%,-1.6,8%
Cc1ccc(NC(=O)C2CCCN(c3cnccn3)C2)c(C)c1 (stereo unspecified),1,1,.,0,1.4%&0.8%,8.3,7%
COc1ccccc1CNC(=O)c1cc(C(C)C)nc2ccccc12,-4,12,2,0,-0.1%,3.7,4%
COc1ccccc1OCC(=O)NC1CCSc2ccccc21 (stereo unspecified),0,-13,11,0,0.9%,-6.4,.

3 compounds out of the list above, sorted by the number in PINK1 modulator, largest number first.
structure	Six1-Eya2 inh	CtBP-E1A inh	D2 PAM	PINK1 modulator	D2 agonist	Sfp inh
O=C(CC(C(=O)O)P(=O)(c1ccccc1)c1ccccc1)c1ccccc1 (stereo unspecified)	9	2	-1	5.4%	6.8	19%
COc1ccccc1OCC(=O)NC1CCSc2ccccc21 (stereo unspecified)	0	11	0	0.9%	-6.4	.
O=C1/C(=C/c2ccco2)SC(=S)N1CC1CCCO1 (stereo unspecified)	?	-16	11	-1.0%	-0.5	18µM*

Other records follow.
compound,Six1-Eya2 inh,TRPV1 potentiator,CtBP-E1A inh,D2 PAM,PINK1 modulator,D2 agonist,Sfp inh
CC(=O)c1ccc(NC(=O)N2CCCC(C(=O)c3ccc4c(c3)OCO4)C2)cc1 (stereo unspecified),-5,3,-25,-4,0.9%,2.0,-8%
CCCC(=O)Nc1c2c(nn1-c1ccc([N+](=O)[O-])cc1)CS(=O)(=O)C2,-4,0,.,-3,0.5%,3.1,-5%
CCNC(=O)C1(C)CCCN(C(=O)c2ccccc2Br)C1 (stereo unspecified),11,.,11,-10,1.4%,-3.1,.
COCCCN(CC(=O)Nc1ccc(N2CCOCC2)cc1)S(=O)(=O)c1ccccc1,0,0,-14,-7,3.7%,-3.2,16%
OC(C1=CC(=Cc2ccncc2)c2ccccc21)c1ccncc1 (stereo unspecified),-14,.,-7,-5,6.8%,4.1,.
CC(=O)N1CCN(S(=O)(=O)c2cccc(C(=O)NCc3ccc(F)cc3)c2)CC1,9,.,-4,-4,3.9%,1.3,.
CCCC(=O)Nc1nc(C)c(-c2csc(Nc3ccc(Cl)cc3)n2)s1,-14,3,-26,-10,1.1%,-2.4,-10%
COc1ccccc1N1CCN(C(=O)Cc2cccs2)CC1,0,-22,0,14,1.4%,-0.8,0%
COc1ccc(CC(=O)NC(C)c2nnc(SCCOc3ccc(OC)cc3)n2C)cc1 (stereo unspecified),-3,9,-9,-8,0.4%,1.8,26%
O=C(c1cncc(Br)c1)N1CCCc2ccccc21,-7,4,10,-7,-1.0%,-2.5,21%
